Insulin prom inh: inhibitors of insulin promoter-driven GFP, primary screen, imaging, TRM-6 cells (human fetal islet line), eGFP reporter, cell count; reporter expression induced with tamoxifen; inhibition, % at 2 µM; actives 0.9% (n = 130,000); AID 1273, 2008;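 active = inhibition above the mean plus 3 SD, with well images judged a real hit on visual review, cut at about 60% in these data, passing the limit was not always enough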
GALR2 agonist: GALR2 receptor agonists, primary screen, cell-based; Galanin receptor type 2 (Homo sapiens), O43603; GALR2-expressing cells, agonist activation read-out; activation, %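 (tested at 5 µM)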; actives 0.48% (n = 140,000); AID 803, 2007;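 active = above mean plus 3 SD of all compounds, about 5% in these data, not always enough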;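 also: 0% = vehicle buffer wells and 100% = reference agonist at full effect; tested in CHO reporter cells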
Target sequence (O43603 whole entry, looked up): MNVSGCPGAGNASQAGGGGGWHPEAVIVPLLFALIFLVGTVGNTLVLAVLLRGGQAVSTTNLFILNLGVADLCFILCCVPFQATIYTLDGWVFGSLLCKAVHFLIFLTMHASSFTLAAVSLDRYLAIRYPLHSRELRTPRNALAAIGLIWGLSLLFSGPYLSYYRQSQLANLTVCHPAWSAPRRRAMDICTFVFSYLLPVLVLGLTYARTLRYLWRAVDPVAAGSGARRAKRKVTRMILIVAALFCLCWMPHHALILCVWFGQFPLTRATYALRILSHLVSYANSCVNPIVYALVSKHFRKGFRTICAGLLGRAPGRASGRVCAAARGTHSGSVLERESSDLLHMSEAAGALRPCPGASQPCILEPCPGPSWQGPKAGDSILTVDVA
PKD1 kinase inh: inhibitors of human PKD1 kinase, biochemical, fluorescence polarization; Serine/threonine-protein kinase D1 (Homo sapiens), Q15139; PKD1 kinase fluorescence polarization assay; inhibition, %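 (about 10 µM by stock and volumes)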; actives 0.056% (n = 200,000); AID 797, 2007;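 active = inhibition of 50% or more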;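 also: controls were vehicle for no effect and a reference inhibitor for full effect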
HSV replic up: enhancers of HSV replication in host cells, fold increase, host cell viability; HSV replication augmentation in cells; maximum fold increase; actives 0.005% (n = 220,000);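 active = peak rise of 1.5-fold or more in the series; tested in PC3 cells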;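 also: first round at 10 µM; read as green reporter fluorescence; hits show the peak of a series up to 25 µM; 1 = signal of infected wells without compound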
RGS16-Gao HTS: modulators of RGS16 binding to Galphao, primary screen, biochemical, human proteins, multiplexed bead flow cytometry; bead-based flow cytometry RGS16-Galphao binding, fluorescence; actives lie on both sides; binding response (% of control), % at 10 µM; actives 0.38% (n = 220,000); AID 1441, 2008;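 active = below 25% or above 175%, edge rows of some plates excepted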;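 also: Galphao activated by GDP with aluminum fluoride before binding; 100% = wells without compound and 0% = beads without RGS; some results beyond the cut were filed as inactive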
Target sequence (O15492 whole entry, looked up): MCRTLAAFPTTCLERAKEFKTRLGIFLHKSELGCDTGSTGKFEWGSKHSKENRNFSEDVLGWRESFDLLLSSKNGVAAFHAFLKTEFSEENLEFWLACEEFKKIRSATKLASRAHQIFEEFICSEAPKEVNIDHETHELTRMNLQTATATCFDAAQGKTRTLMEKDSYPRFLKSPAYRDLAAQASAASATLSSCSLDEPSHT
Target sequence (P09471 whole entry, looked up): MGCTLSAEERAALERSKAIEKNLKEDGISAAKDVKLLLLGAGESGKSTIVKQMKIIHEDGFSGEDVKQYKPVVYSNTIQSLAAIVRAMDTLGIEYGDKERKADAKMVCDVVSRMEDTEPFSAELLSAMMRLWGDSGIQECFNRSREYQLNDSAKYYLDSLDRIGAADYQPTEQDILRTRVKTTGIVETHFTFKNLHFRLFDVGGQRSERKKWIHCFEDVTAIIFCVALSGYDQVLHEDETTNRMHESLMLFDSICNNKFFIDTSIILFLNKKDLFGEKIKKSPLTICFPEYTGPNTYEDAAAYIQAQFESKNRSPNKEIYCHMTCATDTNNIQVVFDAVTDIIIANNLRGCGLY
Insulin prom inh cell count: also measured in Insulin prom inh; calls as there; normalized cell count, %; measured here: cell count, toxicity; reference of the scale not given here;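 cells exposed to compound for 48 h; stained nuclei by imaging scaled within each plate; lower means fewer cells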
HSV replic up primary fold: also measured in HSV replic up; calls as there; fold increase; compound at 10 µM; measured here: primary screen fold increase 10 uM; tested in PC3 cells;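 GFP signal in the first replicate; 1 = infected wells without compound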
Numbers without * were called inactive; i = inactive; / = not tested or not shown; & = joins results of further samples.

Preview:
Every second line gives: Insulin prom inh	RGS16-Gao HTS	PKD1 kinase inh	GALR2 agonist	Insulin prom inh cell count	HSV replic up primary fold	HSV replic up
- OCC1CCCN(C(=S)Nc2ccc(Oc3ccccc3)cc2)C1 (configuration not stated)
  /	89	0	/	/	0.96	i
- CCCCC1CCC(C(=O)OCC(=O)Nc2ccc(S(N)(=O)=O)cc2)CC1 (configuration not stated)
  30	102	6	-0.5	119	1.1	i
- CSc1nc(-c2cccs2)c(C#N)c(=O)[nH]1
  /	85	/	/	/	0.99	i
- CC(NC(=O)CNC(=S)N(Cc1cccs1)C1CCCC1)c1ccccc1 (configuration not stated)
  -10	89	-1	/	88	0.99	i
- Cn1c(=O)[nH]c(=O)c2c1nc(N1CCOCC1)n2CCN1CCOCC1
  /	118	17	-2.7	/	0.95	i
- CN(C(=O)COc1cc(=O)n(C)c2ccccc12)c1cccc(Cl)c1
  /	106	-6	-1.2	/	1.1	i
- CCc1ccc(OCC(=O)NC(=S)Nc2ccc(F)cc2)c(Br)c1
  /	103	3	-1.1	/	0.85	i
- c1ccc(-n2nnc3c(N4CCOCC4)ncnc32)cc1
  /	101	-5	-2.1	/	0.91	i
- O=C(COC(=O)c1ccc[nH]c1=O)NC1CCCC1
  /	108	1	-2.8	/	1	i
- Cc1nn(Cc2ccc(Br)cc2)c(C)c1NC(=O)c1nn(C)cc1Cl
  66	101	-5	-2.5	111	0.97	i
- COC(=O)C1=C(C(C)=O)C(c2ccc(C)cc2)n2nnnc2N1 (configuration not stated)
  14	104	2	-0.4	99	1	i
- C/C(CC(=O)Nc1ccc(Cl)cc1Cl)=N\NC(=O)c1cnccn1
  /	98	/	/	/	0.93	i
- O=C1CCCN1c1cc(Cl)cc(Cl)c1
  9	108	6	/	104	1	i
- COc1ccc(OC(C)C(=O)Nc2cccc([N+](=O)[O-])c2)cc1 (configuration not stated)
  10	108	0	-0.3	114	0.97	i

Main list, from the start:
Every second line gives: Insulin prom inh	RGS16-Gao HTS	PKD1 kinase inh	GALR2 agonist	Insulin prom inh cell count	HSV replic up primary fold	HSV replic up
- OCC1CCCN(C(=S)Nc2ccc(Oc3ccccc3)cc2)C1 (configuration not stated)
  /	89	0	/	/	0.96	i
- CCCCC1CCC(C(=O)OCC(=O)Nc2ccc(S(N)(=O)=O)cc2)CC1 (configuration not stated)
  30	102	6	-0.5	119	1.1	i
- CSc1nc(-c2cccs2)c(C#N)c(=O)[nH]1
  /	85	/	/	/	0.99	i
- CC(NC(=O)CNC(=S)N(Cc1cccs1)C1CCCC1)c1ccccc1 (configuration not stated)
  -10	89	-1	/	88	0.99	i
- Cn1c(=O)[nH]c(=O)c2c1nc(N1CCOCC1)n2CCN1CCOCC1
  /	118	17	-2.7	/	0.95	i
- CN(C(=O)COc1cc(=O)n(C)c2ccccc12)c1cccc(Cl)c1
  /	106	-6	-1.2	/	1.1	i
- CCc1ccc(OCC(=O)NC(=S)Nc2ccc(F)cc2)c(Br)c1
  /	103	3	-1.1	/	0.85	i
- c1ccc(-n2nnc3c(N4CCOCC4)ncnc32)cc1
  /	101	-5	-2.1	/	0.91	i
- O=C(COC(=O)c1ccc[nH]c1=O)NC1CCCC1
  /	108	1	-2.8	/	1	i
- Cc1nn(Cc2ccc(Br)cc2)c(C)c1NC(=O)c1nn(C)cc1Cl
  66	101	-5	-2.5	111	0.97	i
- COC(=O)C1=C(C(C)=O)C(c2ccc(C)cc2)n2nnnc2N1 (configuration not stated)
  14	104	2	-0.4	99	1	i
- C/C(CC(=O)Nc1ccc(Cl)cc1Cl)=N\NC(=O)c1cnccn1
  /	98	/	/	/	0.93	i
- O=C1CCCN1c1cc(Cl)cc(Cl)c1
  9	108	6	/	104	1	i
- COc1ccc(OC(C)C(=O)Nc2cccc([N+](=O)[O-])c2)cc1 (configuration not stated)
  10	108	0	-0.3	114	0.97	i
- COc1cc(OC)cc(-c2nnc(SCC(=O)NCc3cccs3)o2)c1
  -13	102	1	-3.7	123	0.84	i
- NS(=O)(=O)c1ccc(NC(=S)N2CCN(Cc3ccc(Cl)c(Cl)c3)CC2)cc1
  /	97	2	/	/	1.1	i
- CCN1CCN(c2ccc(S(=O)(=O)N3CCCCC3)cc2NC(=O)c2ccc(F)cc2)CC1
  /	104	-7	3.5	/	0.81	i
- O=C(c1n[nH]c(=O)c2ccccc12)N1CCN(Cc2ccc3c(c2)OCO3)CC1
  /	99	/	/	/	1	i
- COC(=O)C1(C)NC(=O)c2ccccc2N1 (configuration not stated)
  /	93	-4	-1.3	/	1.3	i
- Cc1ccc2c(c1)N=C(c1ccccc1)CC(C(Cl)Cl)=N2
  /	98	/	/	/	0.84	i
- COCCNC(=O)C(c1cccs1)N(C(=O)Cn1nnc2ccccc21)c1ccccc1 (configuration not stated)
  -39	104	-4	-1.0	74	0.96	i
- CCN(CC)c1ccc(/C=N/NC(=O)c2cccc(S(=O)(=O)Nc3ccccc3OC)c2)c(O)c1
  56	26	2	2.5	25	1.3	i
- O=C(Cn1c(=S)[nH]c2ccccc2c1=O)N1CCc2ccccc2C1
  -55	108	-6	/	105	0.91	i
- NC(=O)C1CCN(c2ncccc2[N+](=O)[O-])CC1
  /	101	-4	/	/	0.99	i
- CN(C)c1nc(N)nc(CSc2ncc(Cl)cc2Cl)n1
  /	107	-7	-2.1	/	1.1	i
- COc1cc(C)c(Cl)cc1S(=O)(=O)NC1CC(C)(C)NC(C)(C)C1
  /	107	-4	/	/	0.99	i
- O=C(NCc1ccc(Cl)cc1)c1ccc(N2CCCC2=O)cc1
  -100	57	-4	/	48	1	i
- Cc1ccc(S(=O)(=O)Nc2ccc(NC(=O)/C=C/C(=O)O)cc2)cc1
  /	103	-6	/	/	0.87	i
- Cn1c(=O)c2c(nc(CN3CCN(C(=O)c4ccco4)CC3)n2Cc2ccc(Cl)cc2)n(C)c1=O
  /	101	-2	-0.6	/	0.79	i
- Cc1nnc(N(C)C(=O)Cc2ccc3c(c2)OCO3)s1
  13	97	-6	-3.6	83	0.92	i

(listing goes on)
Every second line gives: Insulin prom inh	RGS16-Gao HTS	PKD1 kinase inh	GALR2 agonist	Insulin prom inh cell count	HSV replic up primary fold	HSV replic up
- COc1ccccc1CCNC(=O)CSc1nc(-c2ccco2)cc(C(F)(F)F)n1
  /	58	3	-3.8	/	0.92	i
- CCC1(NC(C)=O)CC2CC1CC2NC(C)=O (configuration not stated)
  33	101	-2	0.3	132	0.97	i
- CC1(OC(=O)CCc2ccccc2)C(=O)C=C2C=C3CCCN3C=C2C1=O (configuration not stated)
  /	93	/	/	/	1	i
- c1ccc2nc(-c3nc4ccccc4o3)ccc2c1
  /	102	-7	-2.3	/	1.1	i
- CC(C)c1ccc(C2CC(=O)c3cnc(N4CCc5ccccc5C4)nc3C2)cc1 (configuration not stated)
  -13	105	-9	-2.4	156	0.84	i
- Cc1cc2[nH]c3ccccc3c2c(C)n1
  37	63	2	0.8	111	0.55	i
- O=C(CCC(=O)N(CC(=O)NC1CCCCC1)c1ccc2c(c1)OCCO2)Nc1ccccn1
  -37	108	-2	/	123	0.89	i
- Cc1ccc(C)c(NC(=O)CCC(=O)NNC(=O)c2cccc([N+](=O)[O-])c2)c1
  14	99	-1	-2.3	136	0.9	i
- COc1ccccc1S(=O)Cc1ccc(C(=O)NC2CCCC2)o1 (configuration not stated)
  /	98	1	-1.3	/	0.8	i
- CCC(=O)Nc1ccc(C(=O)Nc2ccc3c(c2)C(=O)N(CC2CCCO2)C3=O)cc1 (configuration not stated)
  55	98	-1	1.9	75	0.86	i
- CCC(C)C(=O)Nn1c(C2CC2)nc2cc(OC)c(OC)cc2c1=O (configuration not stated)
  /	93	0	/	/	0.92	i
- CC1CCCN(C(=O)N2c3ccccc3Sc3ccccc32)C1 (configuration not stated)
  -7	103	-15	-3.4	157	0.99	i
- CC/C(=N\Nc1ccccc1[N+](=O)[O-])c1ccc(O)cc1
  -43	112	-2	/	80	0.78	i
- O=C(c1cccnc1Cl)N(Cc1ccccc1)Cc1ccccc1
  29	103	-5	/	119	0.98	i
- COc1ccc(C2c3[nH]c4ccccc4c3CCN2Cc2ccoc2)c(F)c1 (configuration not stated)
  /	99	-11	/	/	0.95	i
- O=C(Cn1nnc(-c2ccc(S(=O)(=O)N3CCCC3)cc2)n1)NCC1CCCO1 (configuration not stated)
  -18	106	-3	1.8	266	0.99	i
- O=C(/C=C/c1ccccc1)NC(=S)NNC(=O)c1cnccn1
  /	89	/	/	/	0.83	i
- O=c1c(-c2nnc(SCc3ccc(Cl)cc3Cl)o2)cccn1Cc1ccccc1
  25	100	5	-3.0	123	0.79	i
- COc1ccc(/C=C/c2nnc(NC(=O)c3ccco3)s2)cc1
  /	97	/	/	/	1.1	i
- O=C(O)C(Cc1ccccc1)N1C(=O)C2CCCCC2C1=O (configuration not stated)
  /	97	-3	/	/	1	i
- CCN(CC)S(=O)(=O)c1ccc(NC(=O)C2COc3ccccc3O2)cc1 (configuration not stated)
  /	119	-2	-0.6	/	0.89	i
- N#C/C(=C\c1ccc(Cl)cc1)c1nc(-c2ccco2)cs1
  /	79	-2	0.5	/	1	i
- COc1ccc(NC(=O)Cn2nnc3sc4c(c3c2=O)CC(C)(C)OC4)cc1
  /	98	/	/	/	1.2	i
- Cn1ncc([N+](=O)[O-])c1C(=O)N/N=C/c1ccc(F)cc1
  -27	108	-4	0.0	83	1.1	i
- Cc1ccccc1-c1nnn(CC(=O)c2ccc(S(=O)(=O)N3CCCC3)cc2)n1
  /	101	1	-0.9	/	0.87	i
- COc1cc(NC(=O)Nc2cccc([N+](=O)[O-])c2)cc(OC)c1
  -421	103	4	/	28	0.97	i
- COc1ccc(N=C2CC(C)(C)CC(=O)/C2=C(/O)c2ccccc2)cc1
  /	105	1	/	/	0.9	i
- O=C(c1ccco1)N1CCN(C(=O)C(c2ccccc2)c2ccccc2)CC1
  43	96	-7	-1.3	164	0.97	i
- COc1cccc(-c2cc(C(F)(F)F)n3nc(N)nc3n2)c1
  51	103	-5	-0.7	101	1	i
- CCOC(=O)c1sc(NC(=O)/C=C/c2ccccc2)nc1C
  -33	104	-5	-1.0	155	0.9	i

Continued.
Every second line gives: Insulin prom inh	RGS16-Gao HTS	PKD1 kinase inh	GALR2 agonist	Insulin prom inh cell count	HSV replic up primary fold	HSV replic up
- O=C(CSc1ncccn1)N1CCc2ccccc2C1
  -107	104	7	/	88	0.96	i
- Cc1cccc(OCc2nnc(SCc3nc4ccccc4c(=O)[nH]3)o2)c1
  3	97	-3	-1.4	71	0.98	i
- O=C(Cn1nc(-c2ccccc2)ccc1=O)Nc1ccc(N2CCN(C(=O)c3ccccc3)CC2)cc1
  /	100	-10	-0.2	/	0.91	i
- O=C(c1cc(-c2cccc(O)c2)on1)N1CCN(C(c2ccccc2)c2ccccc2)CC1
  43	107	19	1.2	128	0.82	i
- O=C(O)C1CC(c2cccc(Br)c2)=NO1 (configuration not stated)
  50	144	-9	-2.7	136	1	i
- CCCCn1c(SCN2C(=O)c3ccccc3C2=O)nc2cc(S(N)(=O)=O)ccc21
  17	87	-4	-0.7	136	0.9	i
- CC1(C)CC(=O)c2cnc(NC(=O)CSc3nc4ccccc4o3)nc2C1
  i	85	-6	-2.2	68	0.86	i
- Cc1cc(Cl)cc(C)c1OCCCCn1ccnc1
  47	110	-7	-1.8	87	0.96	i
- O=c1[nH]c(=S)n(-c2cccc(Cl)c2)c(O)c1/C=N/N1CCOCC1
  /	102	/	/	/	1.1	i
- CCN1C(=O)/C(=C/N2CCc3ccccc32)SC1=S
  -32	101	-5	-2.9	111	1	i
- N/C(COc1ccc(Cl)cc1Cl)=N\NS(=O)(=O)c1ccccc1
  -50	108	-17	-0.5	94	1.2	i
- O=C(NNC(=O)[C@H]1CC=CC[C@H]1C(=O)O)c1ccc(Cl)cc1Cl
  0	103	5	/	104	0.93	i
- Cc1cc2ncn(CC(C)C)c2cc1C
  19	118	2	/	53	0.92	i
- CC1=CC(C)=Nc2ccc(C)cc2N1
  30&35	102&99	1&-2	-0.4&0.0	119&126	0.89&0.88	i
- Clc1ccc(-c2cn3c(n2)-c2ccccc2C3)cc1Cl
  /	102	-9	-1.7	/	0.92	i
- O=C(Nc1cnn(Cc2ccc(Cl)cc2)c1)C1CCCC1
  -481	88	-11	-1.4	24	0.93	i
- O=C(C1CCCN(S(=O)(=O)c2ccc(F)cc2)C1)N1CCCC1 (configuration not stated)
  /	102	5	-1.4	/	0.97	i

Assay outcomes from PubChem BioAssay.
